Screening data as filed in PubChem.
GALR2 ag: GALR2 (human) receptor agonism; activation, %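 (tested at 5 µM)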; GALR2-expressing cells, agonist activation read-out; 140,000 compounds, 0.48% hits; O43603; AID 803;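 active = above mean plus 3 SD of all compounds, about 5% in these data, not always enough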;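 note: 0% = vehicle buffer wells and 100% = reference agonist at full effect; tested in CHO reporter cells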
Target sequence (O43603 whole entry, looked up): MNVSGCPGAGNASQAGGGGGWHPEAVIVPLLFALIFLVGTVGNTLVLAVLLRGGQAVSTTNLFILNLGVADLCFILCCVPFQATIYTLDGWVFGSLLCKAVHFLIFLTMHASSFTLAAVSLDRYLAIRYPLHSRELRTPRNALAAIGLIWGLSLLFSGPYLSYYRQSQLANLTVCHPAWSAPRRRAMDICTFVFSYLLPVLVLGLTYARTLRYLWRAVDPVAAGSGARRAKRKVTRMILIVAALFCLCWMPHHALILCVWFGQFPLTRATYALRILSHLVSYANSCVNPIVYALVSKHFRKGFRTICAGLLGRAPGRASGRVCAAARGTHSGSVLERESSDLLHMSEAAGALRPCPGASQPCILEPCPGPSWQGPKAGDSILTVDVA
HSV augment: increases HSV replication in cells; 220,000 compounds, 0.005% hits; maximum fold increase; HSV replication augmentation in cells, fold increase;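 active = peak rise of 1.5-fold or more in the series; tested in PC3 cells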;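 note: first round at 10 µM; read as green reporter fluorescence; hits show the peak of a series up to 25 µM; 1 = signal of infected wells without compound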
INS promoter inh: TRM-6 insulin promoter activity inhibition | TRM-6 cells (human fetal islet line), insulin promoter-eGFP reporter, imaging; reporter expression induced with tamoxifen | inhibition, % at 2 µM | 130,000 compounds, 0.9% hits | AID 1273;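 active = inhibition above the mean plus 3 SD, with well images judged a real hit on visual review, cut at about 60% in these data, passing the limit was not always enough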
PKD1 kinase inh: PKD1 (human) kinase inhibition. PKD1 kinase fluorescence polarization assay. inhibition, %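 (about 10 µM by stock and volumes)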. 200,000 compounds, 0.056% hits;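 active = inhibition of 50% or more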;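 note: controls were vehicle for no effect and a reference inhibitor for full effect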
RGS16-Gao HTS: regulators of human RGS16-Galphao interaction. 220,000 compounds, 0.38% hits. O15492+P09471. bead-based flow cytometry RGS16-Galphao binding, fluorescence; actives lie on both sides. binding response (% of control), % at 10 µM. AID 1441;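 active = below 25% or above 175%, edge rows of some plates excepted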;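 note: Galphao activated by GDP with aluminum fluoride before binding; 100% = wells without compound and 0% = beads without RGS; some results beyond the cut were filed as inactive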
Target sequence (O15492 whole entry, looked up): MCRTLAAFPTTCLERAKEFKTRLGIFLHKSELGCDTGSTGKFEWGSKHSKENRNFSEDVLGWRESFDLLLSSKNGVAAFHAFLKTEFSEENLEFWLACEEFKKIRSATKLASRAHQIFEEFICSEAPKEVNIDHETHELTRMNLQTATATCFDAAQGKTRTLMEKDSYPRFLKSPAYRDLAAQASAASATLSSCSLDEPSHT
Target sequence (P09471 whole entry, looked up): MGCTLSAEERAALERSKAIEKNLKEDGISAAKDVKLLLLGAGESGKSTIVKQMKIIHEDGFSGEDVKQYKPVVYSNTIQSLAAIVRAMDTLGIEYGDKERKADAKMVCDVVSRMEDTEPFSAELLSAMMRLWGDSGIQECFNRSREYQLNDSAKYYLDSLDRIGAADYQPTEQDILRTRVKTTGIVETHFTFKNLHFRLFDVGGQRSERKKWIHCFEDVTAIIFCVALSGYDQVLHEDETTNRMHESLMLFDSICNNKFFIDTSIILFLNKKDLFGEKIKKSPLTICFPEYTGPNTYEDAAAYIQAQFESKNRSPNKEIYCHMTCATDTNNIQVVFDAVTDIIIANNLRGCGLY
INS promoter inh cell count: also measured in INS promoter inh; calls as there; normalized cell count, %; measured here: cell count, toxicity; reference of the scale not given here;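 cells exposed to compound for 48 h; stained nuclei by imaging scaled within each plate; lower means fewer cells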
HSV augment primary fold: further read-out of HSV augment, marked with its call; fold increase; compound at 10 µM; measured here: primary screen fold increase 10 uM; tested in PC3 cells;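 GFP signal in the first replicate; 1 = infected wells without compound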
* hit, by the source's call; i = inactive; x = no result given.

smiles | RGS16-Gao HTS | PKD1 kinase inh | HSV augment primary fold | HSV augment | INS promoter inh | INS promoter inh cell count | GALR2 ag
CCC(=O)/C=C1/Sc2ccc(OC)cc2N1CC | 98.4 | 41.2 | x | x | -15.8 | 75.5 | -0.5
CCOc1ccc(NC(=O)COC(=O)Cc2ccc(S(=O)(=O)N3CCOCC3)s2)cc1 | 95.5 | -3.4 | 0.8 | i | 20.0 | 141.7 | -2.2
COc1cccc(C2C(C(=O)c3sc(C)nc3C)=C(O)C(=O)N2CCN2CCOCC2)c1OC (stereo not given) | 96.2 | -24.9 | 1.02 | i | 33.3 | 91.0 | -4.2
NC(N)=NC1=NC(=O)C(Cc2ccccc2Cl)S1 (stereo not given) | 102.7 | x | 1.07 | i | x | x | x
COc1ccc(NC(=O)CSc2nnc(NC(=O)c3ccccc3C(=O)O)s2)cc1 | 107.6 | 11.7 | 0.99 | i | -14.3 | 120.7 | x
O=C(Oc1ccccc1/C=C\C(=O)c1cc2ccccc2o1)c1ccccc1 | 42.4 | 1.2 | 0.87 | i | 30.0 | 102.9 | -0.6
O=c1oc2ccccc2c(O)c1C=NCc1ccccn1 | 97.5 | -11.7 | 0.82 | i | 46.0 | 84.6 | 0.1
O=C(OCc1ccccc1)c1ccc(Br)o1 | 94.5 | -4.5 | 0.91 | i | 10.5 | 106.7 | -1.0
COc1ccc(Cn2c(C3CC3)nc3ccc(NC(=O)c4ccco4)cc3c2=O)cc1 | 96.2 | -8.1 | 0.91 | i | x | x | -1.8
Cc1ccc(C(=O)Nc2cccc(C(F)(F)F)c2)cc1NC(=O)c1cnnc2ccccc12 | 102.4 | x | 0.86 | i | x | x | x
O=C(NC(=O)N1CCN(c2ccc([N+](=O)[O-])cn2)CC1)c1c(Cl)cccc1Cl | 132.8 | x | 0.7 | i | x | x | x
O=C(COc1cccc(Cl)c1)Nc1nc(-c2ccc(S(=O)(=O)N3CCOCC3)cc2)cs1 | 98.6 | -7.8 | 0.94 | i | 53.3 | 97.2 | -2.9
O=C(Oc1ccc2ccccc2c1Cl)N1CCCC1 | 97.4 | -13.4 | 0.98 | i | x | x | -1.7
N#Cc1cccc(NC(=O)c2ccccc2C(=O)O)c1 | 103.4 | -5.7 | 0.93 | i | 2.3 | 65.3 | -3.0
Fc1ccc(-c2nc3ccccc3[nH]2)cc1 | 94.5 | 2.1 | 1.01 | i | x | x | x
COc1cccc(-c2cn3nc4c(nc3n2)CCCC4)c1 | 123.0 | -7.4 | 0.95 | i | x | x | -3.4
CC(=O)C1=C(C)NC(=O)NC1c1cccs1 (stereo not given) | 103.2 | 3.6 | 0.81 | i | -42.9 | 73.5 | -0.6
COc1ccccc1NC(=O)CN1CCN(c2ccccc2OC)CC1 | 103.8 | 3.4 | 1.12 | i | x | x | x
CCSc1nnc2c(n1)[nH]c1c(C)cccc12 | 104.1 | -9.0 | 0.92 | i | 9.1 | 78.2 | 0.6
COc1ccc2nc(NC(=O)CCNS(=O)(=O)c3ccc4c(c3)oc(=O)n4C)sc2c1 | 110.3 | -9.0 | x | x | x | x | -2.4
CCn1nc(C(=O)OCC(=O)NCCN2C(=O)CSC2=O)c2ccccc2c1=O | 288.8 | -8.7 | 0.947 | i | x | x | -0.3
COC(=O)c1ccc(C2/C(=C(\O)c3cccc(OC)c3)C(=O)C(=O)N2CCCN2CCOCC2)cc1 (stereo not given) | 104.7 | -11.6 | 1.05 | i | x | x | -1.3
CC1=C(C(=O)N2CCOCC2)C(c2cccc(C)c2)NC(=S)N1 (stereo not given) | 97.2 | 12.7 | 0.93 | i | 20.0 | 163.9 | 0.6
Cc1cc(=O)n2[nH]c(COc3ccccc3)nc2n1 | 93.8 | -4.8 | 1 | i | 57.1 | 126.0 | -0.2
O=C(c1cccs1)N1CCN(CCc2ccccc2)CC1 | 100.3 | -9.2 | 1.04 | i | 38.1 | 114.6 | -0.7
CCOc1ccc(C(=O)Nc2nc3ccccc3[nH]2)cc1OCC | 118.2 | -0.9 | 0.98 | i | 18.2 | 90.3 | x
CCc1c(C)nc2ncnn2c1NCCc1ccc(OC)cc1 | 101.8 | 4.7 | 0.74 | i | 25.0 | 45.4 | -1.8
Cc1ccc(/C=N/n2c(-c3ccccn3)n[nH]c2=S)o1 | 94.7 | x | 0.92 | i | x | x | x
COCCNC(=O)CNS(=O)(=O)c1ccc2nc(C)sc2c1 | 90.1 | 8.3 | 1.05 | i | -78.6 | 125.5 | -1.2
Cc1nn(C)c(Cl)c1CN1CCN(C2CCCCC2)C(CCO)C1 (stereo not given) | 98.2 | -5.1 | 0.96 | i | x | x | x
Cc1cnc(NC(=O)C2COc3ccccc3O2)s1 (stereo not given) | 93.2 | -2.5 | 0.8 | i | -31.4 | 66.7 | -1.6
Cc1c(NC(=O)CC(C)C)c(=O)n(-c2ccccc2)n1C | 104.1 | -11.7 | 1 | i | 14.3 | 100.8 | -0.1
Cn1c(=O)c(C(=O)NCC2CCCO2)c(O)c2ccccc21 (stereo not given) | 100.1 | -4.4 | 0.95 | i | -8.3 | 77.8 | x
Cc1cc(=O)n2c(n1)NC(Nc1cccc(C)c1C)=NC2c1ccccc1 (stereo not given) | 102.6 | x | 1.03 | i | x | x | x
CCC(C)NC(=O)C1CCCN(c2nc(C)cc(OC)n2)C1 (stereo not given) | 111.6 | -5.8 | 0.93 | i | 0.0 | 153.7 | -2.4
Cn1c(N)c(C(=O)COC(=O)CCC(=O)c2ccc(F)cc2)c(=O)n(C)c1=O | 101.0 | -4.6 | 1.04 | i | 8.3 | 37.6 | x
O=C(NNc1c2ccccc2nc2ccccc12)c1cc2ccccc2cc1O | 96.2 | 9.4 | 0.69 | i | x | x | -1.3
COC(=O)Nc1ccc(=O)n(Cc2c(Cl)cccc2Cl)c1 | 101.6 | -5.3 | 0.93 | i | 46.4 | 95.7 | -3.9
COc1ccccc1N(CC(O)CN1C(=O)NC(C)(C)C1=O)S(=O)(=O)c1ccc(C)cc1 (stereo not given) | 80.2 | -8.1 | 0.99 | i | 25.8 | 106.9 | -4.1
O=C(CSc1nnc(CNC(=O)c2ccccc2F)o1)NCc1ccccc1 | 94.5 | 4.5 | 0.88 | i | 0.0 | 134.2 | x
COC(=O)c1ccc(CN2CCN(Cc3ccc(F)cc3)C(CCO)C2)cc1 (stereo not given) | 100.8 | 1.4 | 1.12 | i | x | x | x
COc1ccc(/C=C2\C(=O)N(Cc3ccc(F)cc3)CC(=O)N2Cc2ccccc2)cc1 | 102.8 | -3.4 | 0.983 | i | x | x | -1.1
Clc1cc2c(c(CSc3nc4ccccc4n4cccc34)c1)OCOC2 | 106.9 | x | 0.97 | i | x | x | x
O=C(NC(=S)Nc1ccccc1N1CCCC1)c1ccco1 | 93.4 | x | 1.13 | i | x | x | x
CCOc1ccc(/C=N/NC(=O)c2c(C)n(C)c3ccc(OC)cc23)cc1 | 100.1 | -4.5 | 0.68 | i | 0.0 | 166.6 | -0.6
CCOC(=O)c1[nH]cnc1C(=O)Nc1cccc(OC)c1 | 104.1 | x | 0.93 | i | x | x | x
Cc1cccc(C)c1NC(=O)COC(=O)c1ccc2c(c1)OCO2 | 105.2 | -2.4 | 1 | i | -18.2 | 89.7 | x
COC(=O)c1cc(NC(=O)Cc2coc3cc(OC)ccc23)cc(C(=O)OC)c1 | 107.0 | -0.6 | 0.94 | i | x | x | 0.5
NC(=O)c1nc(C2CCCCC2)nc2c1[nH]c(=O)n2-c1ccc(F)cc1 | 96.1 | 6.9 | x | x | x | x | -0.2
CCCCc1nnc(NC(=O)C(=O)OCC)s1 | 95.4 | -9.9 | 0.99 | i | x | x | x

Among those listed so far, these contain an aryl thioether with sulfur outside any ring:
smiles | RGS16-Gao HTS | PKD1 kinase inh | HSV augment primary fold | HSV augment | INS promoter inh | INS promoter inh cell count | GALR2 ag
COc1ccc(NC(=O)CSc2nnc(NC(=O)c3ccccc3C(=O)O)s2)cc1 | 107.6 | 11.7 | 0.99 | i | -14.3 | 120.7 | x
CCSc1nnc2c(n1)[nH]c1c(C)cccc12 | 104.1 | -9.0 | 0.92 | i | 9.1 | 78.2 | 0.6
O=C(CSc1nnc(CNC(=O)c2ccccc2F)o1)NCc1ccccc1 | 94.5 | 4.5 | 0.88 | i | 0.0 | 134.2 | x
Clc1cc2c(c(CSc3nc4ccccc4n4cccc34)c1)OCOC2 | 106.9 | x | 0.97 | i | x | x | x

Going on with the list.
smiles | RGS16-Gao HTS | PKD1 kinase inh | HSV augment primary fold | HSV augment | INS promoter inh | INS promoter inh cell count | GALR2 ag
CCOC(=O)C1=C(N)OC2=C(C(=O)CCC2)C1c1sccc1C (stereo not given) | 107.3 | 5.7 | 0.96 | i | x | x | -0.9
CN(C)S(=O)(=O)Oc1cccc(C(=O)Nc2ccc([N+](=O)[O-])cc2)c1 | 102.2 | -4.1 | 0.88 | i | -6.7 | 72.8 | x
O=C(NC(=S)NCC1CCCO1)c1ccc(Cl)cc1 (stereo not given) | 104.9 | -2.7 | 0.94 | i | -21.9 | 151.8 | -0.8
CC1CCCCN1CCCn1c(=S)[nH]c2ccccc2c1=O (stereo not given) | 102.5 | 8.6 | 0.83 | i | 26.7 | 83.5 | -2.4
Cc1cc(C)c2nncn2n1 | 103.7 | x | 0.97 | i | x | x | x
COc1ccc(-n2c(=O)c3c4c(sc3n3c(=S)[nH]nc23)COC(C(C)C)C4)cc1 (stereo not given) | 91.8 | x | 0.89 | i | x | x | x
O=C(CCc1nnc(-c2ccc3c(c2)OCO3)o1)N1CCC(c2ccc(F)cc2)C1 (stereo not given) | 103.2 | -0.7 | 1 | i | x | x | x
COC(=O)CN(c1cccc(OC)c1)S(C)(=O)=O | 101.2 | 0.1 | 1.18 | i | x | x | -0.8
O=C(c1ccccc1)c1ccccn1 | 96.8 | -1.9 | 1.01 | i | x | x | x
O=C(COC(=O)c1ccccc1NC(=O)c1ccco1)NC1CCS(=O)(=O)C1 (stereo not given) | 106.7 | -0.3 | 1.12 | i | 33.3 | 94.7 | x
O=C(CCCCCn1c(SCC(=O)c2ccccc2)nc2ccccc2c1=O)NCc1ccco1 | 98.9 | -23.4 | 0.97 | i | 16.7 | 87.6 | 0.1
Cc1noc(NS(=O)(=O)c2ccc(NC(=O)c3ccc(OC(C)C)cc3)cc2)c1C | 97.2 | -6.8 | 0.94 | i | 48.1 | 153.9 | x
COc1ccc(C(=O)C(CCC(CNC(C)(C)C)C(=O)c2ccc(OC)cc2)CNC(C)(C)C)cc1 (stereo not given) | 82.5 | 11.0 | 0.67 | i | x | x | -1.3
Cc1ccc(NC(=O)COC(=O)c2cccnc2Cl)cc1S(=O)(=O)N1CCCCC1 | 91.4 | -6.8 | 0.93 | i | x | x | x
O=[N+]([O-])c1ccc(/C=N/N2CCN(c3ccncc3S(=O)(=O)N3CCCCC3)CC2)cc1 | 100.0 | 8.8 | 1.14 | i | 16.7 | 97.5 | -1.9
Cc1nc2ccccc2n1/C(=N\S(=O)(=O)c1ccccc1)c1ccccc1 | 106.1 | -1.0 | 1.07 | i | x | x | -0.3
O=C(C1CCN(S(=O)(=O)c2cccc3cccnc23)CC1)N1CCCC1 | 119.4 | -13.1 | 0.92 | i | x | x | x
Cc1cccc(C(=O)N2CCC(n3nnc4cc(F)ccc43)CC2)c1 | 100.6 | -6.6 | 0.88 | i | -10.8 | 169.7 | 0.0
COc1ccc(-c2nc(-c3cccs3)no2)cc1 | 95.8 | x | 0.98 | i | x | x | x
COc1cc2[nH]c(=O)c(C(=O)NCCCN3CCOCC3)c(O)c2cc1OC | 99.9 | 0.0 | 1.02 | i | x | x | x
CCCCCn1c(=O)[nH]c2cc(C(=O)NCCN(CC)CC)ccc2c1=O | 99.2 | -11.5 | 0.98 | i | x | x | -1.4
CCCCn1c(O)c(/C=C/C=C/C=Nc2ccccc2)sc1=S | 89.8 | -4.3 | 1.28 | i | -225.0 | 69.6 | x
CCOc1ccc(S(=O)(=O)NCCOC)cc1C | 95.2 | -9.6 | 0.97 | i | -21.4 | 121.7 | -1.5
CC(=O)Nc1ccc(S(=O)(=O)NC2(C(F)(F)F)NC(=O)N(c3ccccc3F)C2=O)cc1 (stereo not given) | 101.3 | -6.9 | 0.94 | i | 42.9 | 113.8 | x
CC(=O)Nc1ccc2c(c1)ncn2-c1ccccc1 | 102.7 | x | 0.89 | i | x | x | x
S=c1[nH]nc(COc2ccccc2)n1/N=C/C=C/c1ccccc1 | 92.6 | -3.8 | 0.89 | i | 0.0 | 94.4 | -0.2
